# Six1-Eya2 inh: blocks human Six1 binding to Eya2. Q15475+O00167. AlphaScreen GST-Six1/His-Eya2 binding, biochemical; active compounds read low; control for the full effect not named in the record. activity change, % (no concentration beside the values). actives 0.56% (n = 360,000). AID 651725; in the data active = activity change below about -65%; inconclusive = about -30% to -65%; inactive = above about -30%; also: % is scaled to controls: 0 for no effect and ±100 for the full control effect
# Target sequence (O00167 whole entry, looked up): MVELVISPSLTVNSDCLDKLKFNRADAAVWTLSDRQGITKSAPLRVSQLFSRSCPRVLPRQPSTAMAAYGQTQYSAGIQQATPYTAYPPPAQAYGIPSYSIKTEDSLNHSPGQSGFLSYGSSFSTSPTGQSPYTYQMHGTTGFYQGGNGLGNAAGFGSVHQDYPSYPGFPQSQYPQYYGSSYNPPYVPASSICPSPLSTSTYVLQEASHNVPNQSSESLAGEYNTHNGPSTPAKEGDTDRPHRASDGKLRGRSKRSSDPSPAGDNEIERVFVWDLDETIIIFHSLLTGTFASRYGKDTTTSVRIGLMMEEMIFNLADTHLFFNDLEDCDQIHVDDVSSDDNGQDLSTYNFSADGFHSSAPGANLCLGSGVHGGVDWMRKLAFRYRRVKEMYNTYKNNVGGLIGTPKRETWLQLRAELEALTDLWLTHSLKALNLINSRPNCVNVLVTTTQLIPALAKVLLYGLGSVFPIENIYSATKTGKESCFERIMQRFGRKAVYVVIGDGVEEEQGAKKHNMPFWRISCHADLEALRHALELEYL
# Target sequence (Q15475 whole entry, looked up): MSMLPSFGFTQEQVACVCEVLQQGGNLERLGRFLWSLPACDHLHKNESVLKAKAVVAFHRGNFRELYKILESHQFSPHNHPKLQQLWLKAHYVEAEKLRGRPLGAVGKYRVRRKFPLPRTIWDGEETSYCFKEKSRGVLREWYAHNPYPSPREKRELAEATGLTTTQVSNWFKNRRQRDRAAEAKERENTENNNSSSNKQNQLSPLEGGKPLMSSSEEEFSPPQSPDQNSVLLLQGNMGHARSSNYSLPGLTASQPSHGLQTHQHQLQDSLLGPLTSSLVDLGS
#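 Compounds are tested against tagged Six1 and Eya2 proteins bridged by glutathione donor and nickel acceptor beads; after a one-hour incubation at 37 °C without light, AlphaScreen emission is recorded.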
# D2 ag: activates the human D2 dopamine receptor; DiscoveRx PathHunter D2 beta-arrestin, luminescence, 90 min; 100% = 57 uM dopamine signal; activation, % (concentration not given with the values); actives 0.084% (n = 360,000); P14416; in the data active = activation above about 40%; inconclusive = about 15% to 40%; inactive = below about 15%; also: compound concentration not given in the record; the text of the record calls up to 30% inactive
#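 Agonist mode: compounds alone added to overnight-plated D2 PathHunter cells for 90 min at 37 C, with 57 uM final dopamine (EC100) defining full response. Beta-arrestin recruitment detected by chemiluminescent reagent, read after 1 h at ambient temperature.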
# D2 PAM: potentiates the human D2 dopamine receptor allosterically | P14416 | DiscoveRx D2 beta-arrestin cells, luminescence, 90 min; 100% = 57 uM dopamine signal | potentiation, % (no concentration beside the values) | actives 0.23% (n = 360,000); active = potentiation of 50% or more; inconclusive = 30% to 50%; inactive = 30% or less;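 also: compound concentration not given in the record; tested on top of an EC20 dose of dopamine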
#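 D2 cells co-treated with compound plus 50 nM dopamine (EC20) for 90 min at 37 deg C to detect potentiation. Beta-arrestin recruitment was read as enzyme-fragment luminescence after 1 h at ambient temperature. Full response was set by 57 uM dopamine.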
# CtBP-E1A inh: inhibitors of CtBP/E1A interaction | AlphaScreen GST-E1A/His-CtBP binding, 1536-well; active compounds read low; control for the full effect not named in the record | activity change, % (concentration not given with the values) | actives 0.49% (n = 340,000); in the data active means activity change below about -65%; inconclusive means about -30% to -65%; inactive means above about -30%; also: % is scaled to controls: 0 for no effect and ±100 for the full control effect
#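 Homogeneous bead-based format: GST-tagged E1A captured on glutathione donor beads, His-tagged CtBP on nickel acceptor beads; compounds precede bead addition by 2 h at 37 °C.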
# gsp antagonist: antagonists of gsp mutant (McCune-Albright syndrome) | actives 0.4% (n = 340,000) | gsp-mutant cells, cAMP HTRF, 30 min; control for the full effect not named in the record | Potency, µM (series often up to 76.9 µM), for inactives: at the top dose activity change, negative = inhibition, hits mostly inhibitors; active = falling curve of any shape with a large fitted effect; inconclusive = falling curve, mostly with a smaller effect; inactive = flat or rising curve; cell line not stated here;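 also: intracellular cAMP measured with PDE inhibitor Ro 20-1724 present during compound exposure; potency is read from the fitted curve at half-maximal effect; % is scaled to controls: 0 for no effect and ±100 for the full control effect; nearly all actives have a fitted effect of over 65% in size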
#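 Cells, 2000/well, grown 16–24 h in DMEM 10% FBS with 0.5 mg/ml G418, then compounds plus […] (300 uM addition stock), 30 min at 37C. cAMP read by HTRF (cAMP-d2 and anti-cAMP antibody-K in lysis buffer) after 30 min RT.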
# gsp agonist: gsp mutant agonism; actives 0.13% (n = 340,000); Potency, µM (top dose mostly 76.9 µM), without a hit: at the highest dose activation (cAMP increase), most hits filed as activators; AID 624287; gsp mutant cells, cAMP HTRF, 30 min; control for the full effect not named in the record; active = well fitted activation curve with a large enough effect; inconclusive = small, poorly fitted or top-dose-only effect, or another doubt; inactive = no such curve, though single readings can be large or run the other way; cell line not stated here;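 also: phosphodiesterase inhibitor Ro 20-1724 added with compounds to block cAMP breakdown; potency is read from the fitted curve at half-maximal effect; nearly all actives have a fitted effect of over 60% in size; about a fifth of the inactives were tested at one dose only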
#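 Cells in DMEM/10% FBS with G418 were pretreated with compounds in DMSO plus […] (300 uM stock) for 30 min at 37C. cAMP was measured by HTRF (cAMP-d2 plus anti-cAMP antibody-K) after 30 min at room temperature.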
# Active calls of the source: *; ? = inconclusive; nt = no result given; [ ] = another dose, or the depositor's remark.
SMILES,Six1-Eya2 inh,D2 ag,D2 PAM,CtBP-E1A inh,gsp antagonist,gsp agonist
CCOC(=O)N1CCN(C(=O)CSCC(=O)Nc2nc(-c3ccc(OC)cc3)cs2)CC1,-14.3,-1.0,23.8,-17.9,28.2µM*,-0.5%
O=C(Nc1cccnc1)c1cccc(NC(=O)c2ccco2)c1,-3.3,1.9,-6.0,-1.5,-2.6%,-87.5%[inhibitor]
CNc1c(NS(=O)(=O)c2ccc(OC)cc2)c(=O)oc2ccccc12,-3.7,0.8,0.7,-0.9,5.1%,?
Cc1cc(C)cc(N(CC(=O)NCC2CCCO2)C(=O)CCC(=O)Nc2nccs2)c1 (stereo not given),13.0,-0.6,-0.7,14.0,0.9%,-51.9%[15.4 µM]
COc1ccc(CCNC(=O)c2cc3cccc(OC)c3oc2=O)cc1OC,1.7,-3.3,-0.3,3.5,-1.5%,-26.2%
CCn1ccnc1CNC(=O)C1CCC(=O)N(Cc2cccc(C(F)(F)F)c2)C1 (stereo not given),-3.2,4.6,3.4,-2.7,0.1%,-8.2%
CCCCOc1ccc(-c2ncc(C(=O)O)c(C)n2)cc1,-8.9,-3.3,19.9,5.7,-19.4%,?
Cc1nc(NC(=O)c2ccccc2[N+](=O)[O-])sc1C(=O)N(C)C,2.2,-3.1,-21.6,-7.8,6.0%,-5.4%
O=C(NC(=S)Nc1ccccc1)c1csnn1,0.5,-0.5,-1.3,4.3,5.9%,-23.7%
CCOC(=O)C(C(=O)N1CCOCC1)C1CCCCC1 (stereo not given),-1.4,-0.7,8.8,7.4,6.4%,-10.1%
N#C/C(=C(/O)CSc1n[nH]c(N)n1)c1nc2ccccc2[nH]1,-4.6,-0.4,-1.5,-16.5,-6.0%,9.6%
CC(C)CN(CCOc1cccc(N2C(=O)C3=C(CCCC3)C2=O)c1)CC(C)C,-0.5,-3.8,2.5,0.7,7.0%,1.4%
COc1cc2ncnc(NCc3ccc(F)cc3)c2cc1OC,-8.3,0.5,-18.2,-7.6,7.6%,-6.7%[15.4 µM]
Cc1ccc(-c2nc(CNC(=O)c3ccco3)cs2)cc1,1.2,1.0,-1.8,3.2,0.8%,?
Cc1cccc(CNC(=O)Cn2ccc3cc(S(=O)(=O)N4CCCC4)ccc32)c1,1.7,9.1,2.4,7.9,-8.4%,-14.8%
CC(=O)c1ccc(OCCCC(=O)NC2CCCCC2C)cc1 (stereo not given),7.8,-2.4,-7.9,2.3,1.8%,-7.0%[15.4 µM]
CC(Oc1ccccc1Cl)c1nnc(N)s1 (stereo not given),4.0,-1.9,-15.5,2.9,10.3%,7.4%[15.4 µM]
CC1CCN(c2ncnc3ccccc23)CC1,0.6,0.2,8.8,2.6,?,24.3%
COC(=O)c1cc(NC(=O)c2ccoc2C)cc(C(=O)OC)c1,-3.5,0.4,-7.7,-1.3,-22.4%,-1.2%
Cn1cccc1C(=O)NC(=O)COC(=O)c1ccc(S(C)(=O)=O)cc1,33.0,0.1,-9.2,6.3,-3.9%,26.8%
CC(=O)N1CCN(c2ncnc3sc(-c4ccccc4)cc23)CC1,-17.7,-3.5,2.2,-1.4,-18.0%,4.4%
O=[N+]([O-])c1ccc(C[n+]2ccc(Cc3ccccc3)cc2)cc1,1.5,13.2,10.0,0.2,5.3%,?
Cc1ccc(CC2CC(=O)N(C(Cc3ccccc3)C(=O)O)C2=O)cc1 (stereo not given),-2.2,-2.1,-5.8,3.1,-0.4%,-1.0%[15.4 µM]
Cc1cccc(-c2oc3ccccc3c2C#CCCO)c1,4.0,-3.7,-11.7,2.4,3.2%,nt
CN(C)C(=O)N1CCC(C(=O)N2CCCC(C(=O)c3cccc4ccccc34)C2)CC1 (stereo not given),8.0,-1.7,-9.7,0.2,3.7%,-7.3%[15.4 µM]

# Structures listed above shown as hits in gsp antagonist:
SMILES,Six1-Eya2 inh,D2 ag,D2 PAM,CtBP-E1A inh,gsp antagonist,gsp agonist
CCOC(=O)N1CCN(C(=O)CSCC(=O)Nc2nc(-c3ccc(OC)cc3)cs2)CC1,-14.3,-1.0,23.8,-17.9,28.2µM*,-0.5%

# Compounds listed so far that contain two or more sulfur atoms:
SMILES,Six1-Eya2 inh,D2 ag,D2 PAM,CtBP-E1A inh,gsp antagonist,gsp agonist
CCOC(=O)N1CCN(C(=O)CSCC(=O)Nc2nc(-c3ccc(OC)cc3)cs2)CC1,-14.3,-1.0,23.8,-17.9,28.2µM*,-0.5%
O=C(NC(=S)Nc1ccccc1)c1csnn1,0.5,-0.5,-1.3,4.3,5.9%,-23.7%

# Later entries
SMILES,Six1-Eya2 inh,D2 ag,D2 PAM,CtBP-E1A inh,gsp antagonist,gsp agonist
COc1ccc(OCC(=O)N/N=C/c2ccsc2)cc1,1.7,-1.6,-1.3,0.8,4.1%,-43.0%[inhibitor]
Clc1ccc(CSc2nnc(CNc3cccc(Cl)c3)o2)cc1,4.1,-3.0,2.5,0.5,2.1%,-9.5%
Cc1cccc(OCC(=O)Nc2ccc3c(c2)OCO3)c1C,-3.6,-2.4,0.7,-0.7,-0.3%,16.5%
CCCCCCOC(=O)Nc1ccc(S(=O)(=O)Nc2cccc([N+](=O)[O-])c2)cc1,-6.5,4.2,-4.3,0.2,7.0%,-22.3%
COc1ccc(-c2nc3cccc(C)n3c2NCc2ccco2)cc1OC,-6.8,-3.1,6.1,11.4,-20.0%,19.0%
O=C(C[n+]1cc(Br)cc2ccccc21)c1ccc(Br)cc1,-8.1,-0.3,-9.0,-6.9,4.1%,-46.5%[inhibitor]
CC(=O)c1ccc(S(=O)(=O)Oc2ccc(-c3ccc(C(=O)O)cc3)cc2)cc1,13.5,-4.8,-6.3,-1.2,?,-12.7%
COc1ccc2[nH]cc(C(=O)CN3CCCC(C)(C)C3)c2c1,1.7,1.1,-7.3,0.8,6.7%,?
O=C1/C(=C/c2ccccc2)CSc2sccc21,-1.3,0.2,-10.9,14.6,9.7%,-52.7%[inhibitor]
CCCCOC(=O)c1ccc(OC(=O)c2cccnc2)cc1,-1.6,-2.4,3.9,-4.6,1.9%,-20.1%
COCc1nnc(SCC(=O)NCc2ccccc2)n1-c1ccccc1,3.2,-2.2,-0.8,4.4,2.1%,-51.7%[inhibitor]
CCOC(=O)C1=C(C)NC(=S)NC1c1ccc(OC(=O)c2ccco2)cc1 (stereo not given),-15.9,-4.0,-4.5,-1.9,11.4%,2.7%
CCc1ccc(CN2CCC(Oc3ccc(C(=O)NCc4ccccn4)cc3)CC2)o1,-2.7,-3.6,-14.4,9.5,-5.7%,28.5%
CCOc1ccc(CN(C)C(=O)c2cccnc2OCC)cc1OC,19.2,-4.3,0.2,-6.8,-0.2%,4.0%[15.4 µM]
CCCn1c(N)c(C(=O)CSc2nnc(-c3ccco3)n2Cc2ccccc2)c(=O)[nH]c1=O,-8.0,-2.6,-5.0,-4.6,-0.9%,31.1%
Cc1ccc(/C=N/NC(=O)COc2ccccc2-c2ccccc2)cc1,-2.6,3.2,-10.2,1.7,5.7%,-10.6%
N#Cc1ccc(C(=O)NNC(=O)c2ccncc2)cc1,0.0,-1.0,-5.5,9.2,-4.8%,13.7%
COc1cccc(-c2nnc3sc(-c4ccccc4)nn23)c1,0.4,-3.0,1.8,1.6,-4.7%,-21.8%
CCN(CC)S(=O)(=O)c1ccc(C(=O)N2CCN(C3=NS(=O)(=O)c4ccccc43)CC2)cc1,-0.3,-4.9,-6.7,-5.2,-11.7%,25.3%
Cc1[nH]c2c(C)cccc2c1CN1CCC(CO)(Cc2ccccc2)CC1,-11.4,-5.1,-31.1,-6.3,7.6%,-5.4%
COc1ccc(Nc2nc(C)cc(C)c2C#N)cc1OC,5.1,1.5,1.1,24.9,-3.2%,-76.5%[inhibitor]
CN(CC(=O)Nc1ccc(F)cc1Cl)Cc1cccs1,22.2,-4.5,-1.3,17.7,-4.4%,-3.5%[15.4 µM]
COc1ccc(CCN2CCCC(CN(C)Cc3cc(Cl)c(O)c(OC)c3)C2)cc1 (stereo not given),-6.8,-3.8,-52.4,nt,-1.9%,-19.4%
COC(=O)c1sc2ccccc2c1NC(=O)c1cccs1,18.3,-1.6,-29.8,2.1,-11.2%,13.7%
O=C(Cc1ccccc1)Nc1ccc(C(=O)Nc2ccc(O)cc2)cc1,-27.3,0.8,8.8,-5.7,-3.5%,1.6%[15.4 µM]

# Profiles as entered above. Screens in order: Six1-Eya2 inh | D2 ag | D2 PAM | CtBP-E1A inh | gsp antagonist | gsp agonist
# `COc1ccc(Nc2nc(C)cc(C)c2C#N)cc1OC` is listed with 5.1 | 1.5 | 1.1 | 24.9 | -3.2% | -76.5%[inhibitor]
# `COc1ccc(CCN2CCCC(CN(C)Cc3cc(Cl)c(O)c(OC)c3)C2)cc1` (stereo not given) is listed with -6.8 | -3.8 | -52.4 | nt | -1.9% | -19.4%
# `CCOC(=O)C1=C(C)NC(=S)NC1c1ccc(OC(=O)c2ccco2)cc1` (stereo not given) is listed with -15.9 | -4.0 | -4.5 | -1.9 | 11.4% | 2.7%
# `CCCCOC(=O)c1ccc(OC(=O)c2cccnc2)cc1` is listed with -1.6 | -2.4 | 3.9 | -4.6 | 1.9% | -20.1%
# `Cc1[nH]c2c(C)cccc2c1CN1CCC(CO)(Cc2ccccc2)CC1` is listed with -11.4 | -5.1 | -31.1 | -6.3 | 7.6% | -5.4%

# Continued:
SMILES,Six1-Eya2 inh,D2 ag,D2 PAM,CtBP-E1A inh,gsp antagonist,gsp agonist
CCOC(=O)/C(C#N)=C1\C(=O)N(Cc2ccccc2)c2ccccc21,-10.2,-6.2,-13.6,3.6,-6.6%,-31.3%[inhibitor]
Nc1cc(Cl)ccc1C(=O)OCC(=O)NCc1cccs1,3.6,7.2,9.3,nt,-8.3%,10.3%
COc1ccc(NC(=O)CNC(=O)c2ccc([N+](=O)[O-])cc2)cc1,-0.7,2.0,-1.4,8.0,8.6%,2.4%[15.4 µM]
CC(Sc1nnc(C(F)(F)F)n1C)C(=O)Nc1ccc(N2CCOCC2)cc1 (stereo not given),-11.0,-1.9,-1.2,-12.3,-0.9%,3.5%
O=C(NC1CC1)c1ccc(NC(=O)C2CCC2)cc1,-0.7,-0.1,-9.4,4.8,1.7%,nt
Cc1cc(NC(=O)CSc2nccn2-c2ccc([N+](=O)[O-])cc2)no1,-2.7,4.1,-10.6,2.5,-2.3%,-10.2%[15.4 µM]
O=C(Oc1cccc(C(=O)N2CCOCC2)c1)c1ccc(Br)cc1,2.2,-2.0,3.5,5.6,-5.6%,-60.2%[inhibitor]
CC(=O)Nc1ccc(OCC(O)Cn2c3ccccc3c3ccccc32)c(C)c1 (stereo not given),8.7,-0.4,16.2,0.0,?,-23.2%
Cc1ccc(-c2c(C(=O)N/N=C/C3CCCCC3)nnn2-c2nonc2N)cc1,-3.3,-2.7,-3.5,1.2,-4.7%,8.9%
Cc1ncc(NS(=O)(=O)c2ccc(N)cc2)nc1C,-0.4,-2.1,-10.6,-0.1,10.0%,-2.8%[15.4 µM]
COc1ccc(CN2CCNC(=O)C2CC(=O)NC2CCCCCCC2)cc1OC (stereo not given),-1.4,-1.6,-14.3,3.8,7.6%,0.6%
